# Compound activity: PubChem BioAssay, National Center for Advancing Translational Sciences (NCATS)
# HSD17B inh: inhibitors of human HSD17B10 dehydrogenase. recombinant HSD17B10, NADH fluorescence kinetic; many of its hits are not listed in these tables. Potency, µM (highest dose often 57.1 µM), inactives show top-dose activity change, negative = inhibition, actives largely listed as inhibitors. hit rate 7.6% among 75,000. AID 893; active means well fitted inhibition curve with a large enough effect; inconclusive means small, poorly fitted or top-dose-only effect; inactive means no such curve, though single readings can be large or run the other way;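 further: the protocol describes HADH2 (HSD17B10) and not the HSD17B4 of the title; nearly all actives have a fitted effect of over 70% in size; most hits overshoot -100% by far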
#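 20 nM HADH2, pH 9.0 Tris/Tween; cpd preinc 15 min RT; start w/ 1 mM NAD+ + 90 uM b-hydroxybutyryl-CoA; kinetic fluor ex360/em450 q30s x 4 min; delta last-first.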
# An asterisk follows results filed as active; ? = inconclusive; [ ] = remark or other dose. On the % scale 0 is the no-effect control and ±100 the full control effect; potency means the concentration at half of the fitted maximal effect. This is a subset; rates above refer to the full screens.
SMILES,HSD17B inh
O=c1oc2ccccc2c(O)c1/C=N/c1nc(-c2ccc(O)c(O)c2)cs1,?
O=Cc1ccc(OC2C=CC(C#Cc3ccccc3)OC2CO)cc1 (stereo not drawn),-6.2%[11.4 µM]
COc1ccc(Nc2cccccc2=O)cc1,-2.8%
Fc1ccc(-c2cc(C(F)(F)F)nc(-n3cncn3)n2)cc1,?
CCCn1c(C(O)c2ccc3c(c2)OCO3)nc2ccccc21 (stereo not drawn),7.6%
Cc1ccc(C)c(C(=O)C(C)OC(=O)c2cccn2C)c1 (stereo not drawn),2.6%
CN1C(=O)C(=C2CCCCCC2)SC1=S,-3.7%
CC1(C)Oc2ccc3ccc(=O)oc3c2CC1O (stereo not drawn),31.6µM*
O=C(COC(=O)CCC(=O)Nc1nccs1)NCc1ccco1,-3.4%
COc1ccc(F)c(C2C(C#N)=C(N)Oc3n[nH]c(C(C)(C)C)c32)c1 (stereo not drawn),-0.2%
Cc1cc(F)ccc1OC1C=CC(c2ccc3c(c2)OCO3)OC1CO (stereo not drawn),-2.7%[11.4 µM]
O=C(OCC(=O)N1CCCCCC1)c1cccs1,4.1%
CN(CC(=O)N1CCc2ccccc21)S(=O)(=O)c1cccc2cccnc12,3.2%
CCOC(=O)C1CCCN(C(=O)c2cn(C)c3ccc(S(=O)(=O)N(C)C)cc3c2=O)C1 (stereo not drawn),-11.7%
COc1ccc(N/C=C2/CCCCC2=O)cc1,-7.5%
O=C(COC(=O)CCc1c[nH]c(=O)[nH]1)Nc1ccccc1,-3.9%
O=C(O)c1ccc(S(=O)(=O)N=Nc2c(O)[nH]c3ccccc23)cc1,-7.5%[11.4 µM]
CCC(CC)C(=O)NCCc1cc2ccc(OC)cc2[nH]c1=O,?
O=C(Nc1ccc(S(=O)(=O)N2CCc3ccccc32)cc1)c1ccco1,-8.8%
CC(C)(C)NC(=O)Cn1nnc(-c2ccc(Cl)cc2)n1,5.6%
O=C(CS(=O)(=O)Cc1ccccc1)NCC1CCCO1 (stereo not drawn),2.9%
O=C(CSc1nnc(-c2cccnc2)n1-c1ccccc1)Nc1ccc2c(c1)OCO2,-7.6%
COc1ccc(NC(=O)CCCNS(=O)(=O)c2cccs2)cc1,0.0%
FC(F)(F)c1cccc(N2CCN(Cc3ccoc3)CC2)c1,-2.3%
CSc1nc(N2CCOCC2)c2c(c1C#N)CCCCC2,?

# Another view of part of the listing above.
SMILES | HSD17B inh
Fc1ccc(-c2cc(C(F)(F)F)nc(-n3cncn3)n2)cc1 | ?
CC(C)(C)NC(=O)Cn1nnc(-c2ccc(Cl)cc2)n1 | 5.6%
O=C(OCC(=O)N1CCCCCC1)c1cccs1 | 4.1%

# In the list so far, these contain an aryl methoxy group:
SMILES,HSD17B inh
COc1ccc(Nc2cccccc2=O)cc1,-2.8%
COc1ccc(F)c(C2C(C#N)=C(N)Oc3n[nH]c(C(C)(C)C)c32)c1 (stereo not drawn),-0.2%
COc1ccc(N/C=C2/CCCCC2=O)cc1,-7.5%
CCC(CC)C(=O)NCCc1cc2ccc(OC)cc2[nH]c1=O,?
COc1ccc(NC(=O)CCCNS(=O)(=O)c2cccs2)cc1,0.0%

# Going on with the list.
SMILES,HSD17B inh
Nc1ncnc2c1ncn2[C@@H]1O[C@@H](CO)[C@H](O)[C@H]1O,2.4%[25.6 µM]
CCn1ncc(Br)c1C(=O)N(C)C12CC3CC(CC(C3)C1)C2,4.2%
Cc1ccccc1-c1ccc2ncnc(NCc3cccs3)c2c1,1.5%
CCOC(=O)c1ccc(N2C(=O)C3CC=CCC3C2=O)cc1 (stereo not drawn),-0.4%
Cn1c(CCN2CCCCCC2)nc2cc(NC(=O)Nc3ccccc3)ccc21,25.1µM*
COC(=O)c1ccc(C(NC(=O)OCc2ccccc2)/C(F)=C/[C@@H](C)C(=O)NCc2cc(C)on2)cc1 (stereo partly drawn),12.6%
CC(C)COC(=O)c1ccc(NC(=O)C2C3CCC(C3)C2C(=O)O)cc1 (stereo not drawn),-7.3%
CC1(C)CC(=O)C2=C(C1)NCN(CCCN1CCOCC1)C2,-4.7%
O=C(NCCO)c1scc2c1OCCO2,7.8%
Cc1onc(-c2c(Cl)cccc2Cl)c1C(=O)NC1C(=O)N2C1SC(C)(C)C2C(=O)O (stereo not drawn),4.6%
CCOc1ccccc1C1C(C#N)=C(N)SC(N)=C1C#N,?
CC(C)c1c(O)c(-c2cc3c(c(C(C)C)c2O)CCC2C(C)(C)CCC[C@@]32C)cc2c1CCC1C(C)(C)CCC[C@@]21C (stereo partly drawn),3.4%
COc1ccc(C(=O)N2c3ccccc3CC2C)cc1OC (stereo not drawn),6.7%
O=C(O)c1cnc2ccccc2n1,-29.9%
CC(C)[C@H](CO)Nc1nc(Nc2cc(N)cc(Cl)c2)c2ncn(C(C)C)c2n1,-27.3%
O=C(O)[C@@H](O)Cc1ccccn1,1.6%[11.4 µM]
CCN1C(=C2C(=O)c3ccccc3C2=O)C=Cc2ccccc21,-10.3%
N[C@]1(C(=O)O)CCc2cc(C(=O)O)ccc21,-28.5%
CCOC(=O)c1c(C)[nH]c(C(=O)OC)c1CCC(=O)OC,4.1%
FC(F)(F)c1ccccc1-c1nccc(NCc2ccccc2)n1,-9.3%
Cc1ccccc1NC(=O)N1C2CCCC1CC(NC(=O)C(C)(C)C)C2 (stereo not drawn),0.3%
Cc1n[nH]c(C)c1S(=O)(=O)N1CCC(C(=O)O)CC1,5.7%
COc1ccccc1CNC(=O)CS(=O)Cc1nc(-c2ccccc2C)oc1C (stereo not drawn),-1.8%
CC(C)(C)c1ccc(O)c(O)c1,3.16µM*
CC(C)C(C(=O)NCC1CCCO1)N(Cc1ccco1)C(=O)CNS(=O)(=O)c1ccccc1 (stereo not drawn),-0.2%
SMILES,HSD17B inh
CC1CN(C(=O)c2cccs2)CCN1C(=O)c1cccs1 (stereo not drawn),?
Cc1ccc(C)n1-c1cccc(C(=O)O)c1,31.6µM*
Cn1c(=O)n(CCc2ccccc2)c(=O)c2c1nc1n2CCCN1c1ccccc1,0.7%
O=C(NC(Cc1ccccc1)C(=O)N1CCCC1C(=O)O)c1ccccc1 (stereo not drawn),-2.0%
CC(=O)N1CC2(C)CN(C(C)=O)CC(C)(C1)C2O (stereo not drawn),-6.8%
Oc1c(C(c2cccs2)N2CCN(c3cccc(Cl)c3)CC2)sc2ncnn12 (stereo not drawn),8.1%
O=C(Nn1c(-c2ccccc2)nc2ccccc2c1=O)c1ccco1,-10.0%
CCOC(=O)c1ccc(CC(=O)c2oc3cc(O)ccc3c2C)o1,31.6µM*
CCc1nnc(NC(=O)C2CCCN2S(=O)(=O)c2ccc(F)cc2)s1 (stereo not drawn),6.1%
O=C(CN(C1CCCCC1)S(=O)(=O)c1ccc(Cl)cc1)NCc1ccncc1,-0.1%
CC(C)Cc1cc(C(=O)NCc2cccs2)no1,4.7%
COc1ccc(NC(=O)CCn2cccc2)cc1,-4.1%
CCN(CC)c1ccc(/C=N/n2nnnc2N)c(O)c1,?
CCOc1cc(Br)c(C(=O)O)cc1OCC,-8.2%
CC1CCCC(C)N1C(=O)CSc1nnc(-c2c[nH]c3ccccc23)o1 (stereo not drawn),9.6%
COc1ccc(-c2noc(COc3ccc(Cl)c(C)c3)n2)cc1,-1.0%
COc1ncc2nc(-c3ccccc3)c(=O)n(CCc3ccccc3)c2n1,25.1µM*
Cc1cccc(C2Nc3ccccc3C(=O)N2CCc2ccccc2)n1 (stereo not drawn),31.6µM*
COc1ccc(OCC(=O)N2CCN(C(=O)COc3ccccc3)CC2)cc1,10.5%
O=c1nc2scc(-c3ccccc3)n2c2ccccc12,6.5%
COc1cccc(CN(C)CC(=O)NC(=O)NCc2ccco2)c1,-2.1%
CC(=O)NCCn1c(SCC(=O)NCc2ccco2)nc2ccccc2c1=O,0.5%
Cc1ccc(C(C)C)cc1S(=O)(=O)NCc1cccnc1,-0.7%
CCn1c2ccccc2c2nn(C)c(=N)nc21,8.5%
CCN(CC)C(=O)CSC1=Nc2ccccc2C2=NC(Cc3c[nH]c4ccccc34)C(=O)N12 (stereo not drawn),-1.2%

# In another format: results already given.
molecule | HSD17B inh
CCOc1cc(Br)c(C(=O)O)cc1OCC | -8.2%
CC1CCCC(C)N1C(=O)CSc1nnc(-c2c[nH]c3ccccc23)o1 (stereo not drawn) | 9.6%
CCOC(=O)c1ccc(CC(=O)c2oc3cc(O)ccc3c2C)o1 | 31.6µM*
Cn1c(=O)n(CCc2ccccc2)c(=O)c2c1nc1n2CCCN1c1ccccc1 | 0.7%

# The list goes on.
SMILES,HSD17B inh
Cn1ccnc1C[C@@](C)(O)c1ccccc1,8.5%[11.4 µM]
CN1C(=O)CSc2ccc(NC(=O)N3CCOCC3)cc21,?
CC(=O)c1cc2c(cc1NC(=O)CN1CCCCC1C)OCO2 (stereo not drawn),?
C[N+](C)(C)CC(=O)N/N=C\c1c(O)ccc2ccccc12,5.1%[11.4 µM]
CCOC(=O)C1CCN(C(=O)c2cccc(Cl)c2)CC1,6.8%
COc1cccc(NC(=O)CCN2CCC(C(N)=O)CC2)c1,0.9%
O=C(O)Cc1ccc(NC(=O)C2CC=CCC2C(=O)O)cc1 (stereo not drawn),4.5%
CCc1nc2c3cnn(-c4cc(Cl)ccc4C)c3ncn2n1,-18.3%
COc1cc(/C=c2\s/c(=C(/C#N)C(=O)N3CCCC3)n(-c3ccccc3)c2=O)ccc1O,-7.0%
CCOC(=O)c1c(C)n(C)c2ccc(OCC(O)Cn3c(C)nc4ccccc43)cc12 (stereo not drawn),7.5%
Cc1ccc(C(=O)OCc2nnc(-c3ccccc3)o2)o1,-0.7%
O=S(=O)(NCCc1cn2ccccc2n1)c1ccc(F)c(C(F)(F)F)c1,?
CCn1cc(C2=NOC(C(=O)O)C2)c(C)n1 (stereo not drawn),0.3%
COc1cc(OC)cc(-c2nnc(SCC(=O)N(C(C)C)C(C)C)o2)c1,0.0%
O=C(CN1C(=O)CCC1=O)Nc1ccc(Br)cc1,7.5%
c1ccc2c(c1)CCCC2NC1=NCCC1 (stereo not drawn),3.2%
CCc1nc(Nc2ccc(N3CCN(C(C)=O)CC3)cc2)c2oc3ccccc3c2n1,-28.7%
O=C(NC1CCN(Cc2nnnn2CCc2ccccc2)CC1)c1ccccc1F,-3.3%
CN(Cc1nc2ccccc2n1C)C(=O)c1cccs1,4.7%
CC12CN3CC(C)(CN(C1)C3c1ccc(Br)cc1)C2 (stereo not drawn),1.4%
c1ccc(COn2c(-c3ccccc3)nc3c2CCc2nonc2-3)cc1,?
CC(=O)Oc1ccc(N2C(=O)C3C4C=CC(O4)C3C2=O)cc1 (stereo not drawn),-5.3%
CCOc1ccc2[nH]c(=O)c(CN(Cc3cccs3)Cc3nnnn3C(C)(C)C)cc2c1,?
Cc1cc(O)c(/C=N/c2ccccn2)c(=O)o1,-12.3%
CC(=O)c1cccc(NC(=O)N2CCCC2C(=O)Nc2cc(C)ccc2C)c1 (stereo not drawn),12.3%
SMILES,HSD17B inh
CCN(CC)S(=O)(=O)c1csc(C(=O)NCc2ccccc2)c1,-4.0%
COc1ccc(C(=O)Nc2ccccc2C(=O)NCc2ccco2)cc1OC,?
CC1(C)Cc2c(c(-c3ccco3)nc3n[nH]c(N)c23)CO1,?
CCCc1cc(=O)oc2cc3oc(C)c(C)c3cc12,-9.7%
Cc1cc(C)cc(C(=O)/C=C2\NC(=O)CS2)c1,-14.1%
CCc1c2c(nc3ccc(OC)cc13)OC(C)C2 (stereo not drawn),-6.2%
COc1cc(-c2noc(-c3ccccc3C(=O)NCc3ccco3)n2)cc(OC)c1OC,0.2%
O=C(O)[C@@H]1C[C@@H](C(=O)O)N1,4.1%
COc1ccc(-c2onc3ccc(Cl)cc23)cc1OC,?
CN1CCN(CC(O)COCc2ccc3c(c2)OCO3)CC1 (stereo not drawn),-6.3%
CCn1c(CSc2nnc(-c3cccnc3)n2-c2ccccc2C)nc2cc(C(=O)O)ccc21,?
O=C(Cn1nnc(-c2ccccc2Cl)n1)N1CCN(S(=O)(=O)c2ccc(Cl)cc2)CC1,2.2%
c1ccc(CCNc2ccc3nncn3n2)cc1,-12.3%
O=C(CN(c1cccc(C(F)(F)F)c1)S(=O)(=O)c1ccccc1)N1CCOCC1,-5.5%
CC(=O)Nc1ccc2c(c1)n(C)c(=O)n2C,?
CCCCC(=O)Nc1ccc2oc(-c3cccnc3)nc2c1,25.1µM*
O=c1cnc2cnc(OCc3ccccc3)nc2n1Cc1ccc(F)cc1,-24.6%
O=C(NCCN1CCOCC1)c1cccc(Cl)c1,5.5%
CN(C)c1nc(N)nc(Nc2ccccc2C#N)n1,3.3%
COc1ccc(OC)c(-c2cc(C(=O)Nc3c(C)nn(Cc4ccc(Cl)cc4)c3C)no2)c1,31.6µM*
Cn1c(CCNC(=O)c2ccco2)nc2cc(NS(=O)(=O)c3ccc(Cl)cc3)ccc21,3.9%
CCOc1ccc(OCC)c(NC(=O)C2CCCN(S(=O)(=O)c3cccs3)C2)c1 (stereo not drawn),-9.1%
N#Cc1ccc(OCC(=O)N2CCN(S(=O)(=O)c3cccs3)CC2)cc1,8.0%
CC(N=c1ccccn1C(=O)Nc1ccc(F)cc1)c1ccco1 (stereo not drawn),2.3%
Brc1ccccc1-c1nnc(-c2cccnc2)o1,-0.5%
CC(=O)N(CCCc1ccc(C(C)(C)C)cc1)CCCN(C)C,4.8%
CC(=O)N1[C@H](Cc2ccccc2)C=C[C@]1(C)C(=O)NCCN1CCOCC1,0.1%
CCOc1ccc(NC(=O)CN2CCN(CC(=O)Nc3cc(OC)cc(OC)c3)CC2)cc1,-7.9%
CCOc1ccccc1NC(=O)C1CCCN(C(=O)NCc2ccccc2)C1 (stereo not drawn),1.1%
CC1CCN(c2nc3c(c(=O)[nH]c(=O)n3C)n2CCCc2ccccc2)CC1,8.8%
